SARS PLP yeast: qHTS of Yeast-based Assay for SARS-CoV PLP. S. cerevisiae expressing SARS-CoV PLpro, growth rescue; control for the full effect not named in the record. Potency, µM (top dose mostly 32.9 µM), for inactives: at the highest dose activity, positive = growth rescue. 330,000 compounds, 0.19% hits; active means well fitted rising curve with a large enough effect; inconclusive means small, poorly fitted or top-dose-only effect; inactive means no such curve, though single readings can be large or run the other way; further: 0% is about no effect; nearly all actives have a fitted effect of over 55% in size; growth read by luminescence after 48 h
MARV entry inh: qHTS for inhibitors of binding or entry into cells for Marburg Virus | Marburg virus pseudotyped entry inhibition, cell reporter; control for the full effect not named in the record; about a third of the inactives were read at about 46 µM | Potency, µM (top dose mostly 37.8 µM), without a hit: top-dose activity change, negative = inhibition, usual class: inhibitors | 300,000 compounds, 1.8% hits | AID 540276, 2011; active = well fitted inhibition curve with a large enough effect; inconclusive = small, poorly fitted or top-dose-only effect, or effect the other way; inactive = flat fitted curve, though single readings scatter; tested in HEK293 cells; about a fifth of its hits are not listed in these tables; further: on the % scale 0 is the no-effect control and ±100 the full control effect; luciferase read-out
StopGo reporter: High Throughput Screening for Foot and Mouth Disease Virus Antivirals | Potency, µM (series often up to 57.9 µM), without a hit: at the top dose signal change, negative = less light | 410,000 compounds, 1.2% hits | human cells with a luciferase reporter of 2A StopGo recoding; control for the full effect not named in the record; active = well fitted falling curve with a large enough effect; inconclusive = small, poorly fitted or top-dose-only effect; inactive = no such curve, though single readings can be large or run the other way; tested in HEK293T cells; further: on the % scale 0 is the no-effect control and ±100 the full control effect; nearly all actives have a fitted effect of over 45% in size; luciferase light after 4 h
NS1 inh: qHTS Assay for Inhibitors of Influenza NS1 Protein Function; S. cerevisiae slowed by influenza A NS1, growth recovery by OD600; Potency, µM (titrated, usually from 46.1 µM), for the others: at the highest dose activity, positive = more growth; 270,000 compounds, 0.4% hits; AID 2326, 2010; active means well fitted rising curve with a large enough effect; inconclusive means small, poorly fitted or top-dose-only effect; inactive means no such curve, though single readings can be large or run the other way; further: nearly all actives have a fitted effect of over 50% in size
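In this qHTS, NS1 from influenza A is expressed in budding yeast, where it slows growth. Cells are switched from glucose to 2% galactose medium (pH 6.0, -URA), treated with compound, and growth recovery is read at OD600.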
Lassa entry inh: qHTS for Inhibitors of binding or entry into cells for Lassa Virus | AID 540256, 2011 | Lassa virus pseudotype entry inhibition, cell reporter; control for the full effect not named in the record | 300,000 compounds, 1.2% hits | Potency, µM (highest dose often 37.9 µM), without a hit: at the top dose activity change, negative = inhibition, actives largely listed as inhibitors; active means well fitted inhibition curve with a large enough effect; inconclusive means small, poorly fitted or top-dose-only effect, or effect the other way; inactive means flat fitted curve, though single readings scatter; tested in HEK293 cells; further: on the % scale 0 is the no-effect control and ±100 the full control effect; nearly all actives have a fitted effect of over 50% in size; luciferase read-out
RE007 growth inh: qHTS Assay for Inhibitors of the HIV-1 protein Vpr. AID 651644, 2012. S. pombe RE007 Vpr strain, BacTiter-Glo ATP luminescence, 24 h; control for the full effect not named in the record. Potency, µM (top dose mostly 92.2 µM), inactives show at the highest dose activity change, negative = less growth. 360,000 compounds, 0.21% hits; active = well fitted falling curve with a large enough effect; inconclusive = small, poorly fitted or top-dose-only effect; inactive = no such curve, though single readings can be large or run the other way;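 further: on the % scale 0 is the no-effect control and ±100 the full control effect; nearly all actives have a fitted effect of over 50% in size; the assay follows cell death caused by Vpr and the record does not say whether a fall means rescue or toxicity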
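Fission yeast RE007 carrying one integrated HIV-1 vpr copy, seeded at OD 0.01 in PMG+AL medium with 23 nL pinned compound. Grown 24 h at 30 degrees; viability read by BacTiter-Glo luminescence after 5 min.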
Cruzain noTriton: qHTS Assay for Promiscuous and Specific Inhibitors of Cruzain (without detergent) | purified cruzain, Z-FR-AMC fluorescence, no detergent | Potency, µM, without a hit: max response, negative = inhibition, most hits filed as inhibitors | 200,000 compounds, 2.3% hits | AID 1476, 2009;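 further: plate controls were enzyme without inhibitor for no effect and buffer without enzyme for full effect; nearly all actives have a fitted effect of over 40% in size; top concentration of the series not given in the record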
Target sequence (P25779 123-467 limits assumed): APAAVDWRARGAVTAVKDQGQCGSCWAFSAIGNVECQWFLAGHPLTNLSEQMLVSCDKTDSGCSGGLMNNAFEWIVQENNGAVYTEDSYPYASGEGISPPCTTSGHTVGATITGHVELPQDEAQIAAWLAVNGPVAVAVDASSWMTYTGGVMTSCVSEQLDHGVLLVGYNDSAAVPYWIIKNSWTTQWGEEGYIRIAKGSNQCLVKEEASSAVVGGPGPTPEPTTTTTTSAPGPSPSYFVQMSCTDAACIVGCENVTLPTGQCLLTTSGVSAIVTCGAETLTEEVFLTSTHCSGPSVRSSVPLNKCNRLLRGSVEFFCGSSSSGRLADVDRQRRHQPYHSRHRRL
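Purified cruzain at 1.5 nM, pre-incubated 15 min with compound at room temperature in 100 mM sodium acetate pH 5.5, 5 mM DTT, 0.00005% Triton X-100. Reaction started with 2 uM Z-FR-AMC; AMC fluorescence increase over 60 s gives rate.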
Cruzain inh Det: qHTS Assay for Promiscuous and Specific Inhibitors of Cruzain (with detergent); Cruzipain (Trypanosoma cruzi), P25779; purified cruzain, Z-FR-AMC fluorescence, 0.01% Triton; Potency, µM, inactives show max response, negative = inhibition, usual class: inhibitors; 200,000 compounds, 0.43% hits;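 further: plate controls were neutral wells for no effect and buffer without enzyme for full effect; nearly all actives have a fitted effect of over 40% in size; top concentration of the series not given in the record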
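Steps: dispense cruzain (1.5 nM final) in acetate buffer pH 5.5 with DTT and 0.01% Triton X-100; pin-transfer compounds; incubate 15 min RT; add Z-FR-AMC (2 uM final); read fluorescence every 30 s, using the 60 s intensity change.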
The depositor's hits bear a star; u = inconclusive; x = no result given; [ ] = dose if it differs, or a comment. Unless noted, the call rests on the fitted dose curve; in most records, active means well fitted curve in the direction sought with a large enough effect; inconclusive means small, poorly fitted or top-dose-only effect, or another doubt; inactive means no such curve, though single readings can be large; an effect the other way counts as inactive or inconclusive. Potency means the concentration at half of the fitted maximal effect.

canonical_smiles,SARS PLP yeast,MARV entry inh,StopGo reporter,NS1 inh,Lassa entry inh,RE007 growth inh,Cruzain noTriton,Cruzain inh Det
Cc1ccn2cc(CSc3ccccc3)nc2c1,27%,u,-4%,-22%,u,-27%,-4%,-2.0%
Cc1cccc(/C=C2/Sc3ccc(C(=O)N4CCOCC4)cc3NC2=O)c1,-1%,x,-1%,10%,x,-12%,x,x
COc1cc(NS(=O)(=O)c2ccc(NC(C)=O)cc2)cc(OC)c1,13%,u,-30%,-4%,0%,-7%,13%,-2.2%
NS(=O)(=O)c1cccc(NC(=O)COC(=O)/C(=C/c2cccs2)c2cccs2)c1,6%,u,u,12%,-5%,3%,9%,-11%
COc1ccccc1NC(=O)CSc1nnnn1-c1ccccc1OC,3%,x,3%,-9%,x,-5%,x,x
S=C1NC(c2ccccc2)=NCN1c1ccc(Cl)cc1,22%,u,27%,1%,0%,-14%,-3%,-1.3%
COc1ccc(/C=C2\SC(=S)N(CC(=O)NNC(=O)c3ccncc3)C2=O)cc1,0%,u,28%,x,4%,9%,x,x
CCc1ccc(C2NC(=O)c3[nH]nc(-c4cccc(OC)c4)c32)cc1 (stereo not drawn),x,u,-23%,x,-5%[46.1 µM],x,-3%,-12%
CC(=O)NCCC(=O)Nc1cc(S(=O)(=O)N2CCOCC2)ccc1Oc1ccc(F)cc1,-10%,17%[46.1 µM],-19%,x,-3%,-3%,x,x
Cc1ccnc(SCC(=O)N2CCc3ccccc3C2)n1,-1%,14%[46.1 µM],7%,-2%,7%[46.1 µM],-1%,x,x
COc1ccc(Cl)cc1NC(=O)Cn1nc(C(F)(F)F)c2c1CCC2,x,u,-27%,x,-8%[46.1 µM],x,-7%,-11%
CCn1c(=O)n(CC(=O)NCc2ccccc2OC)c(=O)c2ccccc21,2%,-3%,-6%,6%,11%,11%,-15%,2.6%
CCN1CCc2c(sc(NC(=O)Cc3ccccc3)c2C(N)=O)C1,-1%,x,u,-2%,x,2%,x,x
COc1cc(CNc2ccc(NC(C)=O)cc2)ccc1OCc1ccccc1C,-4%,x,32%[activator],-5%,x,-8%,x,x
O=C(NC(=Nc1nc2ccccc2o1)NC(=O)c1ccccc1)c1ccccc1,-19%,u,5%,-9%,12%,12%,13µM*,-2.5%
COc1ccccc1NC(=O)C1CCCN(S(=O)(=O)c2c(C)noc2C)C1 (stereo not drawn),6%,25%[46.1 µM],28%,-9%,u,-14%,x,x
COc1cccc(N(C(=O)C2COc3ccccc3O2)C(C(=O)NC2CCCCC2)c2ccc(O)cc2)c1 (stereo not drawn),-4%,7%,x,3%,x,x,-5%,-5.0%
CCc1ccc2nc(NC(=O)CSCc3c(C)noc3C)sc2c1,5%,-2%,1%,-15%,6%,-17%,0%,-10%
CCCNc1c(NC(=O)c2ccc(OCCC)cc2)c(=O)oc2ccccc12,x,-17%[46.1 µM],-12%,x,25%[46.1 µM],x,u,0.2%
O=C(Nc1cccn(Cc2cccc(F)c2)c1=O)NC1CCCCC1,-1%,x,-8%,-3%,x,18%,x,x

canonical_smiles,SARS PLP yeast,MARV entry inh,StopGo reporter,NS1 inh,Lassa entry inh,RE007 growth inh,Cruzain noTriton,Cruzain inh Det
C/C(=N\Nc1ccc([N+](=O)[O-])cc1)c1ccco1,-29%,u,42%[activator],-17%,21%,8%,-9%,-8.0%
CN1CCN(NC(=O)c2cc(-c3ccc(Br)s3)nc3ccccc23)CC1,2%,u,0%,11%,u,-5%,x,x
CC(=O)NNS(=O)(=O)c1ccc(-c2cc(C(F)(F)F)n(C)n2)s1,-1%,-4%,14%,6%,-5%,0%,x,x
Nc1ccc(-c2nc3cc(N)ccc3s2)cc1,4%,u,-11%,3%,u,-12%,x,x
CCCn1nc(NC(=O)c2cccs2)c2cc3ccc(C)cc3nc21,1%,x,-15%,-7%,x,9%,x,x
COc1cccc(/C=C2\SC(=O)N(CC(=O)NCCCn3ccnc3)C2=O)c1,1%,-2%[46.1 µM],4%,7%,15%[46.1 µM],-7%,x,x
O=C(NCCc1ccc(Cl)cc1)c1ccc(CSCc2ccc(Cl)cc2)o1,x,x,0%,x,-19%[46.1 µM],x,-4%,-3.2%
Cc1sc2ncnc(SCC(=O)Nc3ccc(S(=O)(=O)N4CCOCC4)cc3)c2c1C,1%,u,-23%,x,u,4%,x,x
COc1ccc(C(=O)NCc2nnc(SC)n2C2CCCCC2)cc1,21%,x,-19%,-1%,x,9%,5%,-1.5%
O=C(c1ccc2c(c1)OCO2)N1CCC2(CC1)Oc1ccc(Cl)cc1C(=O)C21CC(c2cccnc2)=NO1 (stereo not drawn),4%,x,-6%,12%,x,-11%,x,x
COc1ccc(-c2nn(-c3ccccc3)cc2/C=N/NC(=S)NC(C)C)cc1OC,7.1µM*,u,-20%,26%,-26%,-7%,-2%,-13%
O=C1/C(=N/n2cnnc2)c2ccccc2N1Cc1ccccc1,-27%,x,x,-114%,x,x,3%,3.5%
COc1ccc(NC(=O)C2=C(C)Nc3nc(SCc4ccc(Cl)cc4)nn3C2c2cccc(OC)c2OC)cc1 (stereo not drawn),x,x,4%,x,-28%[46.1 µM],x,8%,1.5%
COC(=O)c1ccc(OC(=O)C23CCC(C)(C(=O)O2)C3(C)C)cc1 (stereo not drawn),-1%,x,-7%,1%,x,-3%,x,x
CCN(C(=O)COC(=O)c1cc(-c2cccs2)nc2ccccc12)C1CCS(=O)(=O)C1 (stereo not drawn),1%,1%[46.1 µM],0%,x,16%[46.1 µM],-4%,x,x
COc1ccc(NC(=O)C(C)NS(=O)(=O)c2ccc(NC(C)=O)cc2)cc1Cl (stereo not drawn),16%,u,1%,2%,3%,-8%,-11%,-1.0%
O=C(CCl)N1c2ccccc2Oc2ccc3ccccc3c21,x,u,-94%,x,0%[46.1 µM],u,x,x
O=C(N/N=C/c1ccc(OC(=O)c2ccccc2)cc1)c1cccnc1,0%,22%[46.1 µM],10%,-35%,x,4%,x,x
COc1ccccc1NC(=O)CSc1c2c(nc3ccccc13)CCC2,0%,-23%,u,-5%,-2%,13%,-4%,-4.0%
CCC1=NC(c2ccccc2OC)N(O)C1(C)C (stereo not drawn),7%,0%,-2%,-3%,17%,14%,3%,2.1%

canonical_smiles,SARS PLP yeast,MARV entry inh,StopGo reporter,NS1 inh,Lassa entry inh,RE007 growth inh,Cruzain noTriton,Cruzain inh Det
O=C(O)CCNc1cc(N2CCN(C(=O)c3ccco3)CC2)c2noc3c2c1C(=O)c1ccccc1-3,-6%,u,-17%,25%,u,-16%,x,x
COc1ccccc1NS(=O)(=O)c1ccc(C)c(C(=O)NC2CCN(Cc3ccccc3)CC2)c1,2%,u,u,x,u,-10%,x,x
COCc1cc(C)nc2sc(C(=O)N3CCCC3)c(N)c12,-2%,8%,15%,-4%,-16%,-5%,-6%,0.7%
CCc1ccc2ncc(S(=O)(=O)c3ccc(Cl)cc3)c(N3CCN(CC)CC3)c2c1,x,u,0%,x,x,x,-3%,-1.6%
O=C(COC(=O)c1cc(S(=O)(=O)N2CCCC2)ccc1O)Nc1ccc(S(=O)(=O)N2CCOCC2)cc1,1%,x,-12%,-1%,x,2%,x,x
COc1ccccc1CNC(=O)CNC(=O)c1cn(-c2ccccc2OC)c(=O)c2ccccc12,2%,-4%,-7%,x,1%,-9%,x,x
FC(F)Oc1ccc(NC(=S)NCc2ccco2)cc1Cl,-1%,x,63%[activator],-5%,x,9%,x,x
CCN(C(=O)COC(=O)c1ccc(OCc2c(C)noc2C)cc1)c1ccccc1,-5%,-14%[46.1 µM],-18%,-47%,-19%,1%,10%,-5.3%
O=C(CN1C(=O)COc2ccc(S(=O)(=O)N3CCCCCC3)cc21)N1CCN(c2ccc(Cl)cc2)CC1,x,5%[46.1 µM],0%,x,14%[46.1 µM],x,4%,1.8%
C1=C(c2ccccc2)CCN(c2ncnc3nc[nH]c23)C1,-5%,x,-10%,8%,x,2%,-4%,-7.1%
COc1ccc2cc3c(N)nn(C(=O)c4cccc([N+](=O)[O-])c4)c3nc2c1,9%,u,1%,8%,u,0%,3%,-10%
Cc1cc(-c2nnc(CCC(=O)NC(c3ccccc3)c3ccccc3)o2)no1,1%,x,56%[activator],-2%,x,13%,x,x
CCc1nnc(NC(=O)CN2CCN(Cc3ccc(F)cc3)CC2)s1,-2%,-24%,-18%,7%,1%,8%,x,x
CCn1c(C(=O)N2CCC(C(=O)NCCc3ccc(C)cc3)CC2)cc2sccc21,x,1%[46.1 µM],u,x,x,x,u,-6.2%
O=C1C2C3C=CC(CC3)C2C(=O)N1/N=C/c1c(O)ccc2ccccc12 (stereo not drawn),7%,x,-4%,6%,x,-10%,x,x
CCOCCCNC(=O)c1ccc(C2SCC(=O)N2Cc2ccccc2)cc1 (stereo not drawn),-1%,-14%[46.1 µM],-15%,-5%,-30%[46.1 µM],7%,x,x
Cc1ccc(S(=O)(=O)N(C)C)cc1NC(=O)CCCNC(=O)c1ccc(Cl)cc1,15%,-2%[46.1 µM],-22%,4%,2%,20%,x,x
Cc1ccc(OCCn2c(=O)n(C)c3ccccc32)cc1,-2%,u,47%[activator],-7%,6%,-9%,x,x
COc1ccc(OC)c(NP(=O)(Oc2ccc(Cl)cc2)Oc2ccc(Cl)cc2)c1,-31%,6%,-13%,7%,8%,-10%,-7%,-4.5%
Cc1ccccc1-c1noc(-c2ccc(NCc3cccnc3)c([N+](=O)[O-])c2)n1,x,14%[46.1 µM],-1%,x,21%[46.1 µM],x,3%,2.7%
CCCS(=O)(=O)N1CCN(S(=O)(=O)c2ccccc2)CC1,-19%,3%,4%,5%,18%,24%,0%,1.2%
Cn1cnc([N+](=O)[O-])c1S(=O)(=O)Oc1ccc(Cl)cc1,x,11µM*,20µM*,x,u,u,x,x

Screens deposited in PubChem BioAssay by National Center for Advancing Translational Sciences (NCATS).
